# High-throughput results: PubChem, Johns Hopkins Ion Channel Center
# KCNQ2 enhance – potentiators of rat KCNQ2 potassium channel. CHO-K1 KCNQ2, FluxOR thallium flux fluorescence; active compounds read high. B-score at 10 µM. hit rate 0.54% among 310,000;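 active means fluorescence ratio B-score at least 3 SD of library B-scores, with initial fluorescence B-score within 3 SD, cut at about 5.3 in these data; same plate scores as AID 2156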;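 further: B-score of peak minus minimum over baseline fluorescence ratio after K+ and Tl+ stimulus; positive B-score means potentiation of KCNQ2 with more thallium influx and brighter signal; only the inactives scoring about 0 or higher are listed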
# Target sequence (O88943 whole entry, looked up): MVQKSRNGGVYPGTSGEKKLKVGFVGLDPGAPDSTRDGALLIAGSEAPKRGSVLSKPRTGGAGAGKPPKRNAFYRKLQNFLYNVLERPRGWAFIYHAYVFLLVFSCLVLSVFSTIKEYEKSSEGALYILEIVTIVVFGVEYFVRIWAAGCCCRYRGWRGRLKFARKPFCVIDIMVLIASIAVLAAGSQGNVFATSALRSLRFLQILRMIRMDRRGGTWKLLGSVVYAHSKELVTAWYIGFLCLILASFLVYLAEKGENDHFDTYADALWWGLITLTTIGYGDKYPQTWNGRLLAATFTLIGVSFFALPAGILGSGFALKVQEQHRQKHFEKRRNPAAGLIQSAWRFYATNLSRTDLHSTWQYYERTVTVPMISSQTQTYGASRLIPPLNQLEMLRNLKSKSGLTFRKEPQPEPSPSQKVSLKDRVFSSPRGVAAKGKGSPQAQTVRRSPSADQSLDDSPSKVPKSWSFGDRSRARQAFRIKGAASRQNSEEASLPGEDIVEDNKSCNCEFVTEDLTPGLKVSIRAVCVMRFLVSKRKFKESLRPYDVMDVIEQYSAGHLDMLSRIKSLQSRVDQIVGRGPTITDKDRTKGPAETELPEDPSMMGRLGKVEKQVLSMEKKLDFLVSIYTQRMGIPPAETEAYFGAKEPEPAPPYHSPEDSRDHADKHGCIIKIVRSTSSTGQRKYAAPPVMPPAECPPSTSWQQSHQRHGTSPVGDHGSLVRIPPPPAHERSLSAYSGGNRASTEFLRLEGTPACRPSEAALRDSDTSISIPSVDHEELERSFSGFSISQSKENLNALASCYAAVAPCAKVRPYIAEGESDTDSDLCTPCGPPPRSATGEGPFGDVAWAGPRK
# KCNQ2 enhance baseline – also measured in KCNQ2 enhance; calls as there; B-score; compound at 10 µM; measured here: initial fluorescence intensity artifact check;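 brightness before thallium and not channel activity; 0 = typical well and far values either way flag optical interference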
# Numbers without * were called inactive; & = joins results of further samples. The list is partial (hit frequency here may not be typical).
KCNQ2 enhance,KCNQ2 enhance baseline,compound
0.59,2.1,CCCCN(C)CCCNC(=O)c1ccc(N2CCCC2=O)cc1
3.2,-0.5,CCN(Cc1cc(OC)c(OC)c(OC)c1)C(=S)Nc1cccc(SC)c1
0.46,0.31,COc1cccc(CNC(=O)CCC2CCCN(C(=O)c3ccoc3C)C2)c1 (stereo unspecified)
0.74,0.49,COc1ccc(S(=O)(=O)NCc2cccnc2)cc1C
0.05,0.78,COc1cc(-c2nnc3sc(C4CCCCC4)nn23)cc(OC)c1OC
1.3,-0.1,O=C(NCCCN1CCCC1=O)c1sc2ccccc2c1Cl
1.2,-1,O=C(O)c1ccc(S(=O)(=O)NC2CCCCC2)cc1
1.1,-0.97,CCOC(=O)/C=C/C(=O)OCC(=O)Nc1ccc(Cl)cc1Cl
0.5,0,COc1cccc2cc(C(C)=O)oc12
1.7,-2.8,c1cc(C(c2nnnn2C2CCCCC2)N2CCN3CCCC3C2)ccn1 (stereo unspecified)
0.31,-3,Cc1ccc(-c2nc(NCc3ccco3)n(S(C)(=O)=O)n2)cc1
1.8,-0.71,CC(C)(C)N(Cc1ccccc1)C(=O)c1ccncc1
0.08,-0.69,c1ccc(-c2ccn3nnnc3n2)cc1
1.9,-1.1,C[C@@H](NC(=O)OC(C)(C)C)C(=O)NCC1CCC(C(=O)N[C@@H](Cc2ccccc2)C(=O)O)CC1 (stereo partly specified)
0.03,0.58,CN(CC(=O)Nc1cccc(F)c1)C(=O)CSc1ccc(Br)cc1
0.15,0.58,COc1cc(=O)n(C)c2c(O)cccc12
0.06,0.58,Cc1nc2ccc(NC(=S)NC3CCCCC3)cc2nc1C
0.32,-0.15,COc1ccc(/C=C(\NC(=O)c2ccc(Cl)cc2)C(=O)NCCCN2CCOCC2)cc1OC
1.1,0.49,CCN(CC)CCCNC(=O)c1c(O)c2c([nH]c1=O)CCCC2
0.11,-1.7,c1ccc(-c2cn3c4c(sc3n2)CCCC4)cc1
0.08,0.22,COc1ccc(C(=O)CN2Cc3ccccc3C2=N)cc1
2.1,0.75,COc1cccc(C(=O)N/N=c2\sc3ccccc3n2C)c1
0.01,0.73,CCOC(=O)c1nn(-c2ccc(F)cc2)cc1O
1.2,-1.3,Cc1nnc(Nc2ccc3c(c2)OCO3)c2ccccc12
0.13,1.8,Cc1cc2oc(=O)cc(CN3CCCCC3)c2cc1C
0.06,0.21,CC(C)CC(=O)N1CCN(C(=O)c2ccc(F)cc2)CC1
1,0.6,CCOC(=O)CNc1nc(Cl)nc(Nc2ccc(Cl)cc2)n1
0.28,0.33,NC(=O)c1cc(S(=O)(=O)N2CCOCC2)cs1
1.4,-1.6,COC(=O)c1ccccc1NC(=O)CN1C(=O)CSC1=O
0.84,-1.1,Cc1cc(=O)c2cc(Cl)ccc2[nH]1
0.01,0.93,COCCNC(=O)C(c1ccc(C)o1)N(Cc1ccccc1)C(=O)Cn1nnc2ccccc21 (stereo unspecified)
1.4,0.76,COc1ccc(C)c2sc(N(CCCN(C)C)C(=O)c3ccc(S(=O)(=O)N4CCc5ccccc5C4)cc3)nc12
1.4,-0.23,Cc1cc(C(=O)OCC(=O)Nc2sc3c(c2C#N)CCC(C)C3)c2ccccc2n1 (stereo unspecified)
0.42,1.6,Cc1ccc(CSCC2Nc3ccc(C(=O)N4CCN(c5ccc(F)cc5)CC4)cc3NC2=O)cc1 (stereo unspecified)
2.4,0.4,Cc1cc(=O)cc(C)n1-c1ccc(F)cc1F
1.4,0.36,Cc1cccc(COc2ncnc3nc[nH]c23)c1
0.83&0.98,-1.3&2.1,CCN(CC)c1ccc(SS(=O)(=O)O)cc1
0.7,-1.2,O=C(NC(=S)Nc1ccc(N2CCOCC2)c(Cl)c1)c1cncc(Br)c1
0.29,-0.62,CCC(C)(C)NC(=O)C(c1cccnc1)N(C(=O)c1csnn1)c1ccccc1 (stereo unspecified)
1.8,-1.3,O=C(CSCc1cnn(-c2ccccc2)c1-n1cccc1)NCCN1CCOCC1
1.5,0.66,Cc1nnc(SC/C=C/c2ccccc2)n(N)c1=O
0.15,-2.2,CC(C)C(=O)Nc1ccc2c(c1)nc(CCN1CCCCC1)n2C
0.07,2.6,CC(C)(O)C#Cc1ccc(C(=O)NC2CCCCC2)s1
0.37,-0.04,CCN(C(=O)Cn1cnc2c(nc3n2CCCCC3)c1=O)c1cccc(Cl)c1
0.05,-1.3,Cc1ccc(-n2nc3c(=O)n(CCCC(=O)N4CCCCC4)nc(C)c3c2C)cc1
0.61,-1.2,Cn1cnnc1SCC(=O)NC1CCCCC1
0.69,0.76,COCCNCCOCCOc1cccc(OC)c1
0.03,-0.98,O=C(CCNS(=O)(=O)c1cccs1)Nc1ccccc1F
0.49,1.3,Cc1ccc(C(c2sc3nc(C)nn3c2O)N2CCN(c3ccc(F)cc3)CC2)cc1 (stereo unspecified)
0.41,0.53,CNc1ccc([N+](=O)[O-])cc1C(=O)O

# The results go on.
KCNQ2 enhance,KCNQ2 enhance baseline,compound
0.31,-0.31,CC(C)(C)c1sc(N)nc1-c1ccccc1
0.63,-0.83,NC(=O)Cn1cc(/C=N\NS(=O)(=O)c2cccc([N+](=O)[O-])c2)c2ccccc21
1.4,-1.7,O=C(O)C1Cc2ccccc2CN1C(=O)c1ccccc1 (stereo unspecified)
0.29,-0.29,O=C(CN1CCN(S(=O)(=O)c2ccccc2[N+](=O)[O-])CC1)Nc1ccc(N2CCOCC2)cc1
1.4,2,CCOC(=O)c1ccc(NC(=O)CCc2nc(-c3ccccc3)no2)cc1
0.58,3.3,CC(=O)c1ccc(NC(=O)CSC(C)C)cc1
0.82,-0.08,COc1ccc(/C=N/NC(=O)C(C)N(c2ccc(OC)cc2)S(C)(=O)=O)cc1 (stereo unspecified)
0.7,0.13,CCCCn1nnnc1SCC(=O)Nc1ccc(C)cc1
0.52,-0.65,CC(=O)NC1C(OCc2ccccc2)OC2COC(c3ccccc3)OC2C1OCC(=O)O (stereo unspecified)
0.96,0.11,O=C(O)CC(NCc1ccco1)C(=O)OCCc1ccccc1 (stereo unspecified)
0.24,-0.08,Nc1c(C(=O)c2ccccc2)oc2ccc(Br)cc12
0.84,0.91,CCC(=O)N/N=c1/sc2ccccc2n1C
0.16,-1.1,CCC1=C(OC(=O)N(CC)CC)N2C(=O)OC(=NCC3CC3)[C@]2(Cc2ccccc2)[C@H]2C1=CC[C@H]1C(=O)N(CC)C(=O)[C@H]12
1.2,0.49,COc1ccc(NC(=O)NNC(=O)C(C)Oc2ccc(C(C)C)cc2)c(OC)c1 (stereo unspecified)
1.2,-0.53,COC(=O)c1ccccc1NC(=O)Cn1cnc2ccc(S(=O)(=O)N3CCC(C)CC3)cc2c1=O
1.5,0.25,COC(=O)c1ccc(CN2[C@H](C(=O)OC)C[C@@]3(O)[C@@H](O)[C@@H](O)[C@@H](O)C[C@@H]23)cc1
0.8,0.06,CC(=O)Nc1ccc(S(=O)(=O)/N=C2\SCCN2S(=O)(=O)c2ccc(NC(C)=O)cc2)cc1
0.65,2.5,CC(=O)C(c1ccccc1)C(c1ccccc1)C(C)[N+](=O)[O-] (stereo unspecified)
0.67,-1.2,Cc1ccc2nc(NC(=O)C3CCCN(S(=O)(=O)c4cccc5nonc45)C3)sc2c1 (stereo unspecified)
0.6,1.1,Cc1ccc(S(=O)(=O)N(CC(=O)N/N=C/c2cccc(C)c2)c2cccc3cccnc23)cc1
0.51,0.18,Cc1cc(C)nc(SC(C)C(=O)O)n1 (stereo unspecified)
0.16,-2,CC(C)(C)OC(=O)CNC(=O)c1nc[nH]c1C(=O)NCC(=O)OC(C)(C)C
0.34,-0.05,CCOc1ccc(S(=O)(=O)N2CCCC(C(=O)NCCN3CCOCC3)C2)cc1Cl (stereo unspecified)
2.9,-0.2,CC1CCCN(c2nc3ccccc3nc2C(C#N)S(=O)(=O)c2ccccc2)C1 (stereo unspecified)
0.84,-0.21,O=[N+]([O-])c1ccccc1OCCOc1ccccc1[N+](=O)[O-]

# As entered above:
# Reading for O=[N+]([O-])c1ccccc1OCCOc1ccccc1[N+](=O)[O-] under KCNQ2 enhance: 0.84
# Reading for CC(=O)c1ccc(NC(=O)CSC(C)C)cc1 under KCNQ2 enhance baseline: 3.3
# Reading for CC1CCCN(c2nc3ccccc3nc2C(C#N)S(=O)(=O)c2ccccc2)C1 (stereo unspecified) under KCNQ2 enhance: 2.9
# Reading for CCCCn1nnnc1SCC(=O)Nc1ccc(C)cc1 under KCNQ2 enhance: 0.7
# Reading for Nc1c(C(=O)c2ccccc2)oc2ccc(Br)cc12 under KCNQ2 enhance: 0.24
# Reading for O=C(O)CC(NCc1ccco1)C(=O)OCCc1ccccc1 (stereo unspecified) under KCNQ2 enhance baseline: 0.11
# Reading for CCOC(=O)c1ccc(NC(=O)CCc2nc(-c3ccccc3)no2)cc1 under KCNQ2 enhance baseline: 2

# Next results
KCNQ2 enhance,KCNQ2 enhance baseline,compound
2.7,0.54,NC(N)=NC(=S)Nc1ccc(Cl)cc1
0.96,-0.27,COc1ccc(CCNC(=O)Cc2ccc(C)cc2)cc1OC
1.5,3,CC(=O)Nc1ccc(S(=O)(=O)NCC(=O)NC(C)c2ccc(S(N)(=O)=O)cc2)cc1 (stereo unspecified)
1.9,-2,CCCCOc1ccc(N=Nc2ccc(N)nc2N)cn1
1.5,-0.92,CCc1ccc(S(=O)(=O)N2CCN(C(=O)C3CCN(C(C)=O)CC3)CC2)cc1
1.4,-0.02,O=C(NCCCNC(=O)c1ccco1)c1ccc(F)cc1
0.05,0.13,O=C(Oc1ccc(C(=S)N2CCCCC2)cc1)c1ccccc1F
0.01,-2.1,Cc1c(C(=O)Nc2ccccc2)sc2nc3n(c(=O)c12)CCCCC3
0.75,-1.4,Cc1cc(C)c2oc(C(=O)NC3CCS(=O)(=O)C3)cc(=O)c2c1 (stereo unspecified)
1.1,0.5,Cc1ccc2c(Cn3ccnc3)cc(=O)oc2c1C
1.9,-0.09,O=C(Cc1ccccc1)Nc1ccc(NC(=O)c2cccs2)cc1
2,1.1,CC(NC(=O)Cn1cccc1C(=O)c1ccccc1)c1ccc2c(c1)OCCO2 (stereo unspecified)
1.8,-0.13,COC(=O)CCC(=O)NC(=S)Nc1cc(Cl)ccc1Cl
1.1,3.4,CC(C)CC(=O)NC(=S)N(Cc1ccccc1)Cc1ccccc1
0.53,-0.03,O=C(Nc1ccc(-c2noc(CCc3ccccc3)n2)cc1)c1ccco1
2,0.44,CCN(CC)CCNC(=O)c1ccc(NC(=O)COc2ccccc2F)cc1
2.1,1.3,CCOc1cc(Br)c(CN2C(=O)NC3(CCCCCC3)C2=O)cc1OCC
1.3,-0.48,N#CCSc1ccc2nc(-c3ccccc3)cn2n1
0.21,0.24,O=C(CSc1ncn(-c2ccccc2)n1)Nc1nncs1
0.09,1.4,CCCN(CCC)C(=O)C1CC(=O)OC12CCCCC2 (stereo unspecified)
0.02,1.7,CCOC(=O)c1c(NC(=O)COC(=O)/C=C/c2ccco2)sc2c1CC(C)(C)NC2(C)C
2,-0.79,OC(CN1CCCC(C(F)(F)F)C1)c1ccccc1 (stereo unspecified)
0.66,1.5,C/C=C(\C)c1nnc(NC(=O)C(C)C)s1
0.34,1.3,COc1ccc(C)cc1NC(=O)CSc1nnc(-c2ccco2)n1N
1.3,-0.03,CN(CCO)c1ccc([N+](=O)[O-])cc1C(=O)O
1.3,3.1,COc1ccc(NS(=O)(=O)c2cc(C)ccc2NC(=O)c2cc(C)oc2C)cc1
0.55,-0.25,Cc1ccc(N(CC(=O)Nc2ccc(F)cc2)S(=O)(=O)N2CCCC2)cc1
2.1,-0.02,CCc1ccc(-c2nc(CS(=O)CC(=O)NCc3ccc4c(c3)OCO4)c(C)o2)cc1 (stereo unspecified)
0.04,-0.28,COc1cc(C2c3c(-c4cc(Cl)c(C)cc4O)n[nH]c3C(=O)N2Cc2cccnc2)ccc1O (stereo unspecified)
0.73,0.22,COc1ccc(N2CCN(c3ccc([N+](=O)[O-])cc3Cl)CC2)cc1
1.5,-0.6,CCOC(=O)C1CCN(C(=O)c2ccccc2N(C)S(C)(=O)=O)CC1
0.15,0.33,CC1CCc2sc(C(=O)NNS(=O)(=O)c3ccc(F)c(F)c3F)cc2C1 (stereo unspecified)
1.9,-0.37,O=C(c1ccc2ccccc2n1)N1CCN(c2ccccn2)CC1
0.53,-0.14,O=C(CCOc1ccccc1)Nc1cccc([N+](=O)[O-])c1
0.2,-0.12,CCN(CC)S(=O)(=O)c1cccc(C(=O)N/N=C/c2cc(OC)c(O)c(OC)c2)c1
0.27,2.8,C#CCOC(=O)c1ccccc1C(=O)OCC#C
0.02,-2.1,CCOC(=O)C1(CC2CC2)CCN(Cc2ccc(OC)cc2F)CC1
0.05,1.9,Cc1ccc(OCc2n[nH]c(=S)n2-c2ccc(Br)cc2)cc1
1.6,-1.2,CC(Sc1nncn1C)C(=O)Nc1ccc(Cl)cn1 (stereo unspecified)
1.6,-3,O=C(Nc1ncccn1)c1cc(-c2ccc(F)cc2)nc2ccccc12
0.05,0.75,CC1CC2=C(C(=O)O1)C(c1ccc(Cl)cc1)Nc1ccccc1N2 (stereo unspecified)
0.45,0.34,O=C(Cc1ccc(-n2c(=O)c3ccccc3n(CC(=O)Nc3ccc(F)cc3F)c2=O)cc1)NCc1ccco1
0.1,-1.6,COc1ccc(CCNC(=O)CN2CCOc3ccccc32)cc1OC

# Another view of five compounds above.
SMILES,KCNQ2 enhance,KCNQ2 enhance baseline
COc1ccc(NS(=O)(=O)c2cc(C)ccc2NC(=O)c2cc(C)oc2C)cc1,1.3,3.1
Cc1ccc(N(CC(=O)Nc2ccc(F)cc2)S(=O)(=O)N2CCCC2)cc1,0.55,-0.25
CCc1ccc(-c2nc(CS(=O)CC(=O)NCc3ccc4c(c3)OCO4)c(C)o2)cc1 (stereo unspecified),2.1,-0.02
COc1cc(C2c3c(-c4cc(Cl)c(C)cc4O)n[nH]c3C(=O)N2Cc2cccnc2)ccc1O (stereo unspecified),0.04,-0.28
COc1ccc(N2CCN(c3ccc([N+](=O)[O-])cc3Cl)CC2)cc1,0.73,0.22
